Assay outcomes (PubChem BioAssay)
A1 apoptosis 2: blocks A1, raising caspase activity | 24,000 tested, under 10 active | AID 2465 | caspase activation, % (concentration not given with the values) | MEF A1-2A-BIM cells, caspase-Glo luminescence, 3 h; percent of clofoctol response, DMSO zero; in the data active = caspase activation above about 5.9%;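 also: wells of about 30 µL received 50 nL stock; the first replicate is given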
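Evaluation: Caspase-3/7 activity from luminescence increase | Assay system: A1-2A-BIM mouse embryonic fibroblasts | Quantity: 2500 MEF cells/well | Medium: RPMI-1640 plus 10% FBS | Detection: Caspase-Glo 3/7 luminescence, 1 h at room temperature | Dosing: 50 nL compound per well, pinned | Timing: Cells settled overnight, compound exposure 3 h at 37 °C, 5% CO2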
* hit, by the source's call.

SMILES	A1 apoptosis 2
COc1ccc(CN(C)C[C@H]2Oc3ccc(NS(C)(=O)=O)cc3CC(=O)N([C@H](C)CO)C[C@@H]2C)cc1	-0.5
Cc1noc(C)c1S(=O)(=O)Nc1ccc2c(c1)CC(=O)N([C@H](C)CO)C[C@H](C)[C@H](CN(C)C(=O)Nc1cccc3ccccc13)O2	0.8
Cc1ccc(S(=O)(=O)N(C)C[C@@H]2Oc3ccc(NC(=O)CCN4CCOCC4)cc3CC(=O)N([C@H](C)CO)C[C@@H]2C)cc1	-0.3
C[C@H]1CCCCO[C@@H](CN(C)Cc2ccccc2)[C@@H](C)CN([C@@H](C)CO)C(=O)c2cc(NS(=O)(=O)c3ccccc3)ccc2O1	-0.2
CNC[C@@H]1OCCCC[C@H](C)Oc2ccc(N(C)C)cc2C(=O)N([C@H](C)CO)C[C@@H]1C	-0.6
COc1ccc(NC(=O)N(C)C[C@@H]2Oc3c(NC(=O)C4CC4)cccc3C(=O)N([C@H](C)CO)C[C@@H]2C)cc1	-1.3
C[C@H](CO)N1C[C@H](C)[C@H](CN(C)S(=O)(=O)c2cccs2)Oc2ccc(NC(=O)NC3CCCCC3)cc2C1=O	-0.4
C[C@@H]1CN([C@@H](C)CO)C(=O)c2cc(NS(=O)(=O)c3ccccc3)ccc2O[C@@H](C)CCCCO[C@H]1CN(C)Cc1ccccc1	0.2
C[C@@H]1CN([C@H](C)CO)C(=O)c2cc(NC(=O)C3CCCCC3)ccc2O[C@@H](C)CCCCO[C@@H]1CN(C)C(=O)Nc1cccc2ccccc12	-0.7
CC(C)NC(=O)N(C)C[C@H]1Oc2ccc(N(C)C)cc2CC(=O)N([C@@H](C)CO)C[C@@H]1C	-1.4
COc1ccc(S(=O)(=O)N(C)C[C@H]2OCCCC[C@H](C)Oc3ccc(N(C)C)cc3C(=O)N([C@@H](C)CO)C[C@@H]2C)cc1	0.3
C[C@H](CO)N1C[C@H](C)[C@@H](CN(C)Cc2ccc(-c3ccccc3)cc2)Oc2ccc(NS(C)(=O)=O)cc2CC1=O	0.1
COc1ccc(NC(=O)N(C)C[C@@H]2Oc3c(cccc3N(C)C)C(=O)N([C@H](C)CO)C[C@H]2C)cc1	-0.9
Cc1ccc(S(=O)(=O)Nc2ccc3c(c2)CC(=O)N([C@@H](C)CO)C[C@@H](C)[C@@H](CN(C)C(=O)Nc2c(C)noc2C)O3)cc1	-1.3
Cc1ccc(S(=O)(=O)Nc2ccc3c(c2)C(=O)N([C@@H](C)CO)C[C@H](C)[C@@H](CN(C)C(=O)Nc2ccc(F)cc2)OCCCC[C@@H](C)O3)cc1	-0.2
CNS(=O)(=O)c1ccc(C)cc1	0.5
Cc1noc(C)c1NC(=O)N(C)C[C@H]1OCCCC[C@@H](C)Oc2ccc(NS(=O)(=O)c3ccccc3)cc2C(=O)N([C@@H](C)CO)C[C@H]1C	1.3
C[C@@H]1CCCCO[C@@H](CN(C)S(=O)(=O)c2cn(C)cn2)[C@H](C)CN([C@H](C)CO)C(=O)c2cc(NC(=O)Nc3ccc(C(F)(F)F)cc3)ccc2O1	-1.0
C[C@@H]1CN([C@H](C)CO)C(=O)c2cccc(NC(=O)Nc3ccc(C(F)(F)F)cc3)c2O[C@H]1CN(C)Cc1ccc(-c2ccccc2)cc1	-1.9
O=C(CCCCCCC(=O)Nc1ccccc1O)N/N=C/c1ccc(O)c2ccccc12	1.3
C[C@H](CO)N1C[C@H](C)[C@H](CN(C)Cc2ccccc2)Oc2ccc(N(C)C)cc2CC1=O	0.0
COc1ccc(NC(=O)Nc2ccc3c(c2)C(=O)N([C@@H](C)CO)C[C@@H](C)[C@@H](CN(C)C(=O)Nc2c(C)noc2C)O3)cc1	-0.1
C[C@@H]1CCCCO[C@H](CN(C)S(=O)(=O)c2ccccc2)[C@@H](C)CN([C@H](C)CO)C(=O)c2cc(NC(=O)CCCCCC(=O)Nc3ccccc3N)ccc2O1	1.3
C[C@@H]1CN([C@H](C)CO)C(=O)Cc2cc(NC(=O)C3CCCCC3)ccc2O[C@H]1CN(C)S(=O)(=O)c1ccc(F)cc1	-0.3
C[C@@H]1CN([C@@H](C)CO)C(=O)Cc2cc(N(C)C)ccc2O[C@H]1CN(C)CC1CCCCC1	0.1
C[C@@H]1CN([C@H](C)CO)C(=O)c2cc(NS(=O)(=O)c3ccccc3)ccc2O[C@@H]1CN(C)S(=O)(=O)c1ccc(F)cc1	0.5
C[C@H]1CN([C@@H](C)CO)C(=O)CCCn2nncc2CO[C@@H]1CN(C)Cc1ccc(C(=O)O)cc1	-0.4
COc1ccc(S(=O)(=O)Nc2cccc3c2O[C@@H](CN(C)C(=O)NC2CCCCC2)[C@H](C)CN([C@@H](C)CO)C3=O)cc1	-1.1
C[C@H]1CN([C@@H](C)CO)C(=O)c2cc(NC(=O)Nc3ccccc3)ccc2O[C@H]1CN(C)C(=O)Nc1ccc(F)cc1	0.3
CN1CCN(C(=O)C2=C[C@@H](C3CC3)C[C@@H](OCc3ccc(CO)cc3)O2)CC1	0.7
COc1ccc(S(=O)(=O)N(C)C[C@@H]2Oc3ccc(NC(=O)Nc4ccc5c(c4)OCO5)cc3CC(=O)N([C@H](C)CO)C[C@H]2C)cc1	0.3
COc1ccc(NC(=O)N(C)C[C@@H]2Oc3c(NS(=O)(=O)c4cccs4)cccc3C(=O)N([C@H](C)CO)C[C@@H]2C)cc1	1.1
C[C@@H]1CN([C@H](C)CO)C(=O)c2cc(NC(=O)Cc3ccccc3)ccc2O[C@H]1CN(C)C(=O)NC1CCCCC1	0.3
Cc1ccc(S(=O)(=O)Nc2ccc3c(c2)C(=O)N([C@@H](C)CO)C[C@@H](C)[C@H](CN(C)S(=O)(=O)c2ccccc2)OCCCC[C@@H](C)O3)cc1	-1.5
C[C@@H]1CCCCO[C@@H](CN(C)C(=O)Nc2ccc(F)cc2)[C@H](C)CN([C@@H](C)CO)C(=O)c2cc(NS(=O)(=O)c3ccc(Cl)cc3)ccc2O1	1.0
Cc1ccc(S(=O)(=O)Nc2ccc3c(c2)CC(=O)N([C@H](C)CO)C[C@H](C)[C@H](CN(C)Cc2ccc(C(=O)Nc4ccccc4N)cc2)O3)cc1	0.1
COc1ccc(CN(C)C[C@H]2OCCCC[C@H](C)Oc3ccc(NS(=O)(=O)c4c(C)noc4C)cc3C(=O)N([C@@H](C)CO)C[C@@H]2C)cc1	-1.0
COc1ccc(S(=O)(=O)Nc2cccc3c2O[C@@H](CN(C)S(=O)(=O)c2cn(C)cn2)[C@@H](C)CN([C@H](C)CO)C3=O)cc1	2.1
Cc1ccc(S(=O)(=O)Nc2ccc3c(c2)C(=O)N([C@@H](C)CO)C[C@@H](C)[C@@H](CN(C)C(=O)NC2CCCCC2)OCCCC[C@@H](C)O3)cc1	0.1
COc1ccc(NC(=O)Nc2ccc3c(c2)C(=O)N([C@@H](C)CO)C[C@H](C)[C@H](CN(C)CC2CCCCC2)O3)cc1	0.3
C[C@@H]1CCCCO[C@H](CN(C)C(=O)Cc2ccccc2)[C@@H](C)CN([C@@H](C)CO)C(=O)c2cc(NS(=O)(=O)c3ccc(F)cc3)ccc2O1	0.1
C[C@@H]1CN([C@H](C)CO)C(=O)c2cc(NC(=O)CCC(F)(F)F)ccc2O[C@@H]1CN(C)C(=O)Nc1ccc2c(c1)OCO2	0.7
C[C@@H]1CCCCO[C@H](CN(C)S(=O)(=O)c2ccc(Cl)cc2)[C@H](C)CN([C@@H](C)CO)C(=O)c2cc(NC(=O)CCC(F)(F)F)ccc2O1	-0.7
CC(/C=C/C(=O)NO)=C\c1cccc(OCc2ccc(COc3ccc4ccncc4c3)cc2)c1	-0.4
Cc1ccc(S(=O)(=O)N(C)C[C@H]2Oc3c(NC(=O)C4CCCCC4)cccc3C(=O)N([C@@H](C)CO)C[C@@H]2C)cc1	0.2
COc1ccc(S(=O)(=O)N(C)C[C@@H]2Oc3ccc(NC(=O)C4CC4)cc3C(=O)N([C@@H](C)CO)C[C@@H]2C)cc1	1.6
C[C@@H]1CN([C@@H](C)CO)C(=O)c2cc(NS(=O)(=O)c3cn(C)cn3)ccc2O[C@@H](C)CCCCO[C@@H]1CN(C)C(=O)NC1CCCCC1	2.1
C[C@H]1CN([C@@H](C)CO)C(=O)CCCn2nncc2CO[C@H]1CN(C)C(=O)Nc1ccc(N2CCN(C)CC2)cc1	-0.1
C[C@@H]1CCCCO[C@@H](CN(C)S(C)(=O)=O)[C@H](C)CN([C@@H](C)CO)C(=O)c2cc(NC(=O)CCCN(C)C)ccc2O1	-0.2
C[C@H]1CN([C@@H](C)CO)C(=O)c2cccc(NC(=O)NC3CCCCC3)c2O[C@@H]1CN(C)S(=O)(=O)c1ccc(Cl)cc1	-1.8

Next part
SMILES	A1 apoptosis 2
Cc1noc(C)c1NC(=O)N(C)C[C@H]1Oc2ccc(NC(=O)Cc3ccccc3)cc2CC(=O)N([C@H](C)CO)C[C@H]1C	0.5
C[C@@H]1CN([C@@H](C)CO)C(=O)c2cc(NC(=O)Nc3ccccc3)ccc2O[C@@H]1CN(C)Cc1ccncc1	-0.1
C[C@@H]1CCCCO[C@@H](CN(C)Cc2ccncc2)[C@H](C)CN([C@H](C)CO)C(=O)c2cc(NS(=O)(=O)c3cccs3)ccc2O1	-0.6
COc1ccc([Si](C)(C)[C@H]2[C@H](CCO)O[C@@]3(C(=O)N(Cc4cccc(N5CCC5=O)c4)c4ccccc43)[C@@H]2C)cc1	-2.5
C[C@@H]1CCCCO[C@H](CN(C)S(=O)(=O)c2ccc(Cl)cc2)[C@H](C)CN([C@H](C)CO)C(=O)c2cc(NC(=O)C3CCCCC3)ccc2O1	0.3
Cc1ccc(S(=O)(=O)N2CCC[C@H]2Cn2cc(CN3C(=O)COC[C@H]3c3ccccc3)nn2)cc1	0.4
COc1ccc(NC(=O)Nc2ccc3c(c2)C(=O)N([C@@H](C)CO)C[C@H](C)[C@H](CN(C)S(=O)(=O)c2cccs2)O3)cc1	0.3
Cc1noc(C)c1S(=O)(=O)N(C)C[C@H]1OCCCC[C@H](C)Oc2ccc(NS(=O)(=O)c3cccs3)cc2C(=O)N([C@@H](C)CO)C[C@H]1C	0.1
Cc1noc(C)c1NC(=O)N(C)C[C@H]1Oc2c(NC(=O)CCCCCC(=O)Nc3ccccc3N)cccc2C(=O)N([C@@H](C)CO)C[C@@H]1C	0.8
CC(C)NC(=O)N(C)C[C@@H]1Oc2ccc(NC(=O)Nc3ccc(F)cc3)cc2C(=O)N([C@@H](C)CO)C[C@@H]1C	-1.1
O=C(N/N=C/c1cccc(B(O)O)c1)c1ccccn1	-10.0
C[C@H](CO)N1C[C@H](C)[C@H](CN(C)CC2CC2)Oc2c(NC(=O)NC3CCCCC3)cccc2C1=O	1.0
C[C@@H]1CN([C@H](C)CO)C(=O)c2cc(NC(=O)CCCN(C)C)ccc2O[C@@H](C)CCCCO[C@H]1CN(C)Cc1ccccc1	0.5
CNC[C@@H]1Oc2ccc(NC(=O)Nc3ccc(OC)cc3)cc2CC(=O)N([C@@H](C)CO)C[C@H]1C	0.1
C[C@@H]1CN([C@@H](C)CO)C(=O)c2cc(NS(=O)(=O)c3cccs3)ccc2O[C@@H]1CN(C)C(=O)NC1CCCCC1	-1.1
Cc1ccc(S(=O)(=O)N(C)C[C@H]2OCCCC[C@@H](C)Oc3ccc(NS(C)(=O)=O)cc3C(=O)N([C@H](C)CO)C[C@H]2C)cc1	1.5
C[C@@H]1CCCCO[C@H](CN(C)C(=O)c2ccccc2)[C@H](C)CN([C@@H](C)CO)C(=O)c2cc(NS(=O)(=O)c3cn(C)cn3)ccc2O1	-0.2
C[C@H]1CCCCO[C@H](CN(C)C)[C@@H](C)CN([C@@H](C)CO)C(=O)c2cc(NC(=O)c3ccccc3)ccc2O1	0.4
CNC[C@H]1Oc2ccc(NC(=O)Nc3ccc4c(c3)OCO4)cc2CC(=O)N([C@@H](C)CO)C[C@H]1C	1.1
COC(=O)CCCCCCC(=O)N/N=C/c1ccc(F)cc1	0.9
C[C@H]1CN([C@@H](C)CO)C(=O)CCCn2cc(nn2)CO[C@H]1CN(C)Cc1ccncc1	0.3
C[C@@H]1CN([C@H](C)CO)C(=O)c2cccc(NS(C)(=O)=O)c2O[C@@H]1CN(C)Cc1ccc(Cl)c(Cl)c1	0.7
COc1ccc(S(=O)(=O)Nc2ccc3c(c2)CC(=O)N([C@H](C)CO)C[C@@H](C)[C@H](CN(C)C)O3)cc1	-1.0

Filtered by structure: the compounds so far with two or more sulfur atoms (10)
SMILES	A1 apoptosis 2
C[C@H](CO)N1C[C@H](C)[C@H](CN(C)S(=O)(=O)c2cccs2)Oc2ccc(NC(=O)NC3CCCCC3)cc2C1=O	-0.4
C[C@@H]1CN([C@H](C)CO)C(=O)c2cc(NS(=O)(=O)c3ccccc3)ccc2O[C@@H]1CN(C)S(=O)(=O)c1ccc(F)cc1	0.5
COc1ccc(NC(=O)N(C)C[C@@H]2Oc3c(NS(=O)(=O)c4cccs4)cccc3C(=O)N([C@H](C)CO)C[C@@H]2C)cc1	1.1
Cc1ccc(S(=O)(=O)Nc2ccc3c(c2)C(=O)N([C@@H](C)CO)C[C@@H](C)[C@H](CN(C)S(=O)(=O)c2ccccc2)OCCCC[C@@H](C)O3)cc1	-1.5
COc1ccc(S(=O)(=O)Nc2cccc3c2O[C@@H](CN(C)S(=O)(=O)c2cn(C)cn2)[C@@H](C)CN([C@H](C)CO)C3=O)cc1	2.1
C[C@@H]1CCCCO[C@@H](CN(C)Cc2ccncc2)[C@H](C)CN([C@H](C)CO)C(=O)c2cc(NS(=O)(=O)c3cccs3)ccc2O1	-0.6
COc1ccc(NC(=O)Nc2ccc3c(c2)C(=O)N([C@@H](C)CO)C[C@H](C)[C@H](CN(C)S(=O)(=O)c2cccs2)O3)cc1	0.3
Cc1noc(C)c1S(=O)(=O)N(C)C[C@H]1OCCCC[C@H](C)Oc2ccc(NS(=O)(=O)c3cccs3)cc2C(=O)N([C@@H](C)CO)C[C@H]1C	0.1
C[C@@H]1CN([C@@H](C)CO)C(=O)c2cc(NS(=O)(=O)c3cccs3)ccc2O[C@@H]1CN(C)C(=O)NC1CCCCC1	-1.1
Cc1ccc(S(=O)(=O)N(C)C[C@H]2OCCCC[C@@H](C)Oc3ccc(NS(C)(=O)=O)cc3C(=O)N([C@H](C)CO)C[C@H]2C)cc1	1.5

Not all compounds are listed; count on the stated rates, not on these rows.
